PMP22 txn: modulates PMP22 transcription in S16 Schwann cells | S16 Pmp22-F2sN Schwann cells (luciferase reporters placed in the Pmp22 gene), FLuc/NLuc coincidence luminescence, 24 h | Potency, µM (top dose mostly 57.5 µM), inactives show top-dose activity change, negative = inhibition, usual class: inhibitors | 43,000 compounds, 2% hits; active = clear falling dose curves in both reporters; inconclusive = both reporters move, but less clearly or upward; inactive = either reporter flat; the % is the NLuc reporter signal; note: % is set by controls: 0 for no effect and ±100 for the full control effect; some results filed as inactive show a strong effect at the top dose
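Reporter cells (S16 Pmp22-F2sN, 500–1,000 per well) exposed to compounds for 24 h, 37C, 5% CO2; lysis with FLuc read after 10 min, then Stop&Glo and NLuc read after 10 min.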
HTT prom inh: HTT promoter inhibition; HEK293 HTT promoter firefly luciferase reporter (activity 0% = vehicle and -100% = no light), 24 h; Potency, µM (doses to about 57.5 µM), without a hit: at the top dose activity change, negative = inhibition, usual class: inhibitors; 48,000 compounds, 0.93% hits; AID 1508623; active = well fitted inhibition curve with a large enough effect; inconclusive = small, poorly fitted or top-dose-only effect; inactive = no such curve, though single readings can be large or run the other way; note: nearly all actives have a fitted effect of over 50% in size
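HEK293 luciferase promoter-reporter cells (2,500/well) plated 24 h, then compounds added at up to 57.5 uM final for 24 h at 37 °C. Firefly luminescence by Dual-Glo, normalized to vehicle (0%) and zero RLU (-100%).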
Numbers without * were called inactive; ? = inconclusive; . = not tested or not shown; [ ] = dose if it differs, or a comment. Potency is the fitted concentration of half-maximal effect. Not all compounds are listed; the hit share may differ from the screen's.

SMILES | PMP22 txn | HTT prom inh
COc1ccc(C2CC(=O)c3cnc4c(-c5ccccc5)c(C)nn4c3C2)c(OC)c1 (configuration not stated) | 3% | -6%
CCOC(=O)N1CCN(Cc2nc3cc(NC(=O)c4ccc(F)cc4)ccc3n2C(C)C)CC1 | ? | ?
Cc1c(Cl)ccc2sc(NC(=O)c3ccc(S(=O)(=O)N4CCCC4)cc3)nc12 | 10% | -3%
CCOc1ccccc1Nc1nc2ccccc2c2nncn12 | -3% | -7%
CCOc1ccc(-n2cc(-c3ccccc3)c3c(NCc4ccccc4)ncnc32)cc1 | ? | -30%
Cc1cccc(NC(=O)CSc2nc3c([nH]c4ccccc43)c(=O)n2C)c1C | -7% | -7%
COc1ccc(Cl)cc1NC(=O)c1oc2ccc(S(=O)(=O)N3CCCCC3)cc2c1C | -16% | -4%
Cc1ccc(NC(=O)Cn2c(=O)n(CCCCC(=O)NCCc3ccccc3)c(=O)c3ccccc32)cc1 | ? | -7%
O=C(c1ccc2c(c1)N(Cc1cccc(Cl)c1)C(=O)c1ccccc1S2)N1CCOCC1 | -1% | ?
CCOC(=O)CC(NC(=O)Cn1nnc(-c2ccccc2C)n1)c1ccc(OC)cc1 (configuration not stated) | 6% | -6%
COc1ccc(N2CCN(C(=O)c3cn(C4CCCCC4)c(=O)c4c3c3ccccc3n4C)CC2)cc1 | ? | ?
CCn1nc(C)c(CCN(C)C(=O)Nc2cc(C)cc(C)c2)c1C | 3% | -1%
CCc1nnc(SC(CC)C(=O)Nc2cc(C)ccc2C)c2cc3occc3n12 (configuration not stated) | ? | -5%
CCN(CC)CCNC(=O)c1ccc(-c2nc(CS(=O)(=O)c3ccc(C)cc3)c(C)o2)cc1 | -9% | -22%[11.5 µM]
COc1ccc(C)c2sc(N3CCN(C(=O)c4ccco4)CC3)nc12 | -8% | -24%
O=C(COc1ccc(F)cc1)OCc1cc(=O)n2nc(C3CC3)sc2n1 | 16% | -13%
COc1ccc(Cn2c(C(=O)O)c(CNC3CCCCC3)c3ccc(C)cc32)cc1 | 25% | -3%
Cc1ccc(Cn2ccn(Cc3ccc(C)cc3)c(=O)c2=O)cc1 | 9% | 4%
Cc1ccc(OCCn2nnc3sc4c(c3c2=O)CCC(C)C4)cc1 (configuration not stated) | -9% | 6%
Cc1cc(N2CCC(C)CC2)nc2ccc(NC(=O)Cc3ccccc3Br)cc12 | -25% | -20%
O=C(C1CCCN(S(=O)(=O)c2ccc(Br)s2)C1)N1CCN(c2cccc(Cl)c2)CC1 (configuration not stated) | ? | -23%
COc1cccc(N2CCN(C(=O)Cn3ncc4c3-c3ccccc3OC4)CC2)c1 | -25% | -19%
COc1ccc(/C=C/c2onc(C)c2S(=O)(=O)N2CCC(C(=O)N3CCC(C)CC3)CC2)cc1 | ? | -28%
COc1cccc(NS(=O)(=O)c2ccc3[nH]cc(C(=O)NCCc4ccccc4)c(=O)c3c2)c1 | -32% | ?
COc1ccc(N(C)C(=O)c2cc3c(s2)-c2ccccc2OC3)cc1 | -18% | -8%
Cc1cccc(NC(=O)C(=O)NCC(c2cccnc2)N2CCc3ccccc3C2)c1C (configuration not stated) | -24% | ?
Cc1ccc(N2C(=O)CCSC23C(=O)N(Cc2ccc(F)cc2)c2ccccc23)cc1 (configuration not stated) | ? | ?
Cc1ccc(C)c(-n2c3nc(=O)[nH]c(=O)c-3cc3c(C)nn(-c4ccccc4)c32)c1 | 5% | -13%
CCN(CC)c1ccc(NC(=O)COCc2cc(-c3ccc4c(c3)OCO4)on2)c(C)c1 | ? | ?
C[C@]12C=CC(=O)N[C@@H]1CC[C@H]1[C@H]3CC[C@@H](C(=O)Nc4cc(C(F)(F)F)ccc4C(F)(F)F)[C@@]3(C)CC[C@@H]12 | . | -7%

Laid out differently: entries from further up
SMILES	PMP22 txn	HTT prom inh
Cc1cccc(NC(=O)C(=O)NCC(c2cccnc2)N2CCc3ccccc3C2)c1C (configuration not stated)	-24%	?
Cc1ccc(Cn2ccn(Cc3ccc(C)cc3)c(=O)c2=O)cc1	9%	4%
O=C(C1CCCN(S(=O)(=O)c2ccc(Br)s2)C1)N1CCN(c2cccc(Cl)c2)CC1 (configuration not stated)	?	-23%
COc1ccc(/C=C/c2onc(C)c2S(=O)(=O)N2CCC(C(=O)N3CCC(C)CC3)CC2)cc1	?	-28%
C[C@]12C=CC(=O)N[C@@H]1CC[C@H]1[C@H]3CC[C@@H](C(=O)Nc4cc(C(F)(F)F)ccc4C(F)(F)F)[C@@]3(C)CC[C@@H]12	.	-7%
COc1ccc(Cn2c(C(=O)O)c(CNC3CCCCC3)c3ccc(C)cc32)cc1	25%	-3%
Cc1cc(N2CCC(C)CC2)nc2ccc(NC(=O)Cc3ccccc3Br)cc12	-25%	-20%

(list continues)
SMILES | PMP22 txn | HTT prom inh
O=C(NCCc1ccc(Cl)cc1)C(=O)NCC(c1ccco1)S(=O)(=O)c1ccccc1 (configuration not stated) | ? | -25%
CNc1ccc(-c2nc(-c3ccccn3)no2)cc1[N+](=O)[O-] | ? | 50%[activator]
CCN(c1ccccc1)S(=O)(=O)c1nnc(NC(=O)c2ccccc2)s1 | 35% | -16%
Cc1ccc(C)c(N2CCN(C(=O)c3ccc4[nH]c(C)c(C)c4c3)CC2)c1 | -12% | -30%
Cc1cc(=O)oc2cc(OCC(=O)Nc3ccc(O)c(C(=O)O)c3)ccc12 | -9% | -6%
O=C(CSc1nccn1Cc1ccc2c(c1)OCO2)Nc1ccccc1F | -18% | -16%
CC1=C(C(=O)Nc2cc(Cl)ccc2C)C2(CCCCC2)OC1=O | -13% | -17%
COc1ccc(-n2c(=O)c3c(c4cc(OC)ccc4n3C)n(CC(=O)NCC3CCCO3)c2=O)cc1 (configuration not stated) | -4% | -12%
COc1ccccc1CC(=O)Nc1ccc2nc(N3CCC(C)CC3)cc(C)c2c1 | -12% | -1%
CCN(CC)C(=O)Cn1nnc2sc(-c3ccccc3)cc2c1=O | -2% | 0%
Cc1ccc(-c2nn(CC(=O)NCc3ccccc3)c3c2cnc2ccc(F)cc23)cc1C | 4% | 36%[activator]
COc1ccc(NC(=O)c2sc3nc4n(c(=O)c3c2C)CCC4)cc1Cl | -12% | 33%
Cc1cc(CS(=O)(=O)c2ccccc2)cc(OCc2ccc(CN3CCC[C@H]3CO)cc2)c1 | . | 3%
Cn1cc(S(=O)(=O)N2CCCCC2)cc1C(=O)N1CCN(c2ccc(F)cc2)CC1 | -10% | -16%
O=c1c2cc3c(nc2ncn1Cc1ccccc1F)CCCC3 | -1% | ?
CCc1ccc2c(c1)c(=O)c(S(=O)(=O)c1ccc(F)cc1)cn2CC(=O)Nc1ccc(C)cc1C | ? | -31%
Clc1cccc(-n2ncc3c(N4CCCCC4)ncnc32)c1 | -5% | ?
CCOC(=O)c1c(C)[nH]c(C)c1S(=O)(=O)N(C)CC(=O)Nc1cc(Cl)ccc1OC | -3% | ?
CCOC(=O)c1ccc(NC(=O)CSc2nc3cc4ccccc4cc3[nH]2)cc1 | -38% | -13%[11.5 µM]
O=C(NCc1ccccc1)c1cc2ccc3cccnc3c2[nH]1 | 11% | 56%[activator]
O=C(CCCCn1c(=O)c2ccccc2n(Cc2ccc(F)cc2Cl)c1=O)NCCc1ccc(Cl)cc1 | ? | -23%
Cc1ccc(Cc2nc3ccccc3nc2SCC(=O)N2CCN(c3ccccc3)CC2)cc1 | -29% | 0%
Cc1ccc(-n2c(CCC(=O)O)ccc2-c2cccs2)cc1C | ? | 13%
CCc1ccc(NCc2cc3ccc(OC)cc3n(CC(=O)Nc3ccc(C)c(Cl)c3)c2=O)cc1 | -19% | -18%
COc1ccc2c(c1)c1c(c(=O)n(-c3ccccc3C)c(=O)n1Cc1cccc(C(F)(F)F)c1)n2C | ? | -14%
CCc1ccc(NC(=O)CN2C(=O)CC(c3ccccc3)Sc3ccccc32)cc1 (configuration not stated) | -33% | -35%
CCN(CC)CCCNC(=O)Cc1csc2nc(-c3ccc(Cl)cc3)cn12 | 15% | -11%
O=C(CCC1N=C2c3ccccc3N=C(SCc3cccc(F)c3)N2C1=O)NCc1ccc(F)cc1 (configuration not stated) | ? | -23%
Cc1cc(NC(=O)Cn2c(=O)nc(-c3ccccc3F)c3cc(Cl)ccc32)ccc1Br | -39% | -13%
COc1ccc(NC(=O)C2CCN(S(=O)(=O)c3c(C)noc3/C=C/c3ccc(C)cc3)CC2)cc1Cl | -19% | 0%
CC1CCN(C(=O)CSc2nc3c([nH]c4ccccc43)c(=O)n2-c2ccccc2)CC1 | -15% | 1%
CCCS(=O)(=O)N1CC(=O)N(c2ccc(C)cc2)C(C)(C(=O)NC2CCCCCC2)C1 (configuration not stated) | 1% | -8%
CC1=C(C(=O)Nc2ccc(C)cc2C)C(c2ccc(Br)cc2)n2ncc(C(=O)Nc3cccc(C)c3)c2N1 (configuration not stated) | ? | -12%
CCCNC(=O)C1CCN(c2ncnc3c2nc2n3CCCCC2)CC1 | 2% | -4%
CCCc1nn2c(=O)cc(COC(=O)c3ccc(NC(=O)COc4ccccc4F)cc3)nc2s1 | 0% | -16%
COc1ccc(NC(=O)CSc2cn(CC(=O)N3CCCCC3)c3ccccc23)c(OC)c1 | -15% | -13%
O=C(COCc1cc(-c2cccs2)on1)NCc1ccc(Cl)cc1 | -23% | -29%
CCC(=O)N1CCc2cc(S(=O)(=O)NCCC(=O)NCc3ccc(OC)cc3)ccc21 | -19% | -26%
COc1ccc(NC(=O)C2CCCN(S(=O)(=O)c3ccc4c(c3)CCCN4C(C)=O)C2)cc1 (configuration not stated) | -15% | ?
COc1cccc(NC(=O)CCNS(=O)(=O)c2ccc3c(c2)oc(=O)n3C)c1 | 36% | -13%
CCN(CC)CCCC(C)Nc1c2ccc(Cl)cc2nc2ccc(OC)cc12 (configuration not stated) | . | 9%
CCOC(=O)c1c(-c2ccc(C)cc2)csc1NC(=O)c1ccc(C(C)(C)C)cc1 | 6% | -9%
CCn1nc(C)c(CCN(C)C(=O)Nc2cc(Cl)ccc2C)c1C | 22% | 19%
Cc1cc(C)c2c(=O)cc(C(=O)Nc3ccccc3Cl)oc2c1 | 10% | 5%[11.5 µM]
Cc1cccc(-c2nn(C(=S)Nc3ccccc3)cc2-c2ccnc3ccccc23)n1 | . | ?

In a second layout: 2 of the compounds above
| Molecule | PMP22 txn | HTT prom inh |
| --- | --- | --- |
| CC1CCN(C(=O)CSc2nc3c([nH]c4ccccc43)c(=O)n2-c2ccccc2)CC1 | -15% | 1% |
| COc1ccc(NC(=O)C2CCCN(S(=O)(=O)c3ccc4c(c3)CCCN4C(C)=O)C2)cc1 (configuration not stated) | -15% | ? |

One compound at a time (already shown).
Profile of O=C(NCc1ccccc1)c1cc2ccc3cccnc3c2[nH]1 → PMP22 txn = 11%; HTT prom inh = 56%[activator]
Profile of COc1ccc(C2CC(=O)c3cnc4c(-c5ccccc5)c(C)nn4c3C2)c(OC)c1 (configuration not stated) → PMP22 txn = 3%; HTT prom inh = -6%
Profile of CCN(c1ccccc1)S(=O)(=O)c1nnc(NC(=O)c2ccccc2)s1 → PMP22 txn = 35%; HTT prom inh = -16%

(cont.)
SMILES | PMP22 txn | HTT prom inh
Cc1ccc(NC(=O)Cn2c(=O)n(CC3CCC(C(=O)NC(C)C)CC3)c(=O)c3sccc32)cc1 (configuration not stated) | -3% | -20%
CCOc1ccccc1NC(=O)Cn1cc(C(=O)c2ccc(Cl)cc2)c(=O)c2ccc(C)nc21 | -25% | -1%
COc1ccccc1NC(=O)c1ccc2[nH]c(C)cc(=O)c2c1 | 13% | 2%
CSc1nn(CC(=O)Nc2ccc(C)cc2C)c(N)c1S(=O)(=O)c1ccc(Cl)cc1 | ? | ?
CCN(CC)c1nc2ccccc2nc1C(=O)Nc1cc(OC)c(OC)c(OC)c1 | ? | -24%
CCOCCCNC(=O)C(c1ccc(Cl)cc1)N(Cc1cccs1)C(=O)c1ccc(NC(C)=O)cc1 (configuration not stated) | 14% | -17%
Cc1ccccc1N1CCN(S(=O)(=O)c2nnc(NC(=O)c3ccc(Cl)cc3)s2)CC1 | 64% | ?
Cc1cccc(C)c1NC(=O)Cn1c(=O)cc(C)c2c(C)nn(-c3cccc(Cl)c3C)c21 | 23% | -12%
CCOc1cc(-c2cc(C(=O)O)c3c(-c4ccccc4)[nH]nc3n2)ccc1O | -7% | -1%
c1ccc2[nH]ccc2c1 | . | -10%
Cc1ccc(Cn2c(CN3CCN(c4cccc(Cl)c4)CC3)nc3c2c(=O)n(C)c(=O)n3C)cc1 | ? | -30%
CC(C)c1ccc(NC(=O)CCNS(=O)(=O)c2ccc3c(c2)CCCC(=O)N3)cc1 | ? | -24%
Nc1ccc(S(=O)(=O)Nc2ccnn2-c2ccccc2)cc1 | . | 3%
CC(=O)c1ccc(NC(=O)CSc2cn(CC(=O)N3CCCCC3)c3ccccc23)cc1 | ? | -17%
O=C(O)c1ccc(OCCN2CCCCC2)cc1 | . | 0%
CC(C)c1ccc(/C=C(\C#N)c2nc(-c3cc4ccccc4oc3=O)cs2)cc1 | -4% | -3%
COCCNC(=O)c1sc2ncccc2c1-n1c(C)ccc1C | ? | -11%
Cc1coc2cc3oc(=O)c(CC(=O)NCCc4ccccc4)c(C)c3cc12 | -21% | -1%
Cc1cccc(C)c1NC(=O)CN(C)S(=O)(=O)c1ccc2[nH]c3c(c2c1)CCCC3 | ? | -23%

Screens: PubChem, National Center for Advancing Translational Sciences (NCATS)
